Source: PubChem BioAssay
Mtb H37Rv – Confirmatory growth inhibition assay against Mycobacterium tuberculosis H37Rv, potency (AID 1949); most inactive calls were filed without a number and no value below 0 was filed; one-dose inhibition, % at 10 µg/mL; IC50 in µg/mL for titrated hits; 100,000 compounds, 1.6% hits;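 active means confirmed in a dose series; inconclusive means about 50% or more but not retested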;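 further: bacteria grown 7 days with compound before Alamar blue readout; 0% = untreated bacteria and 100% = reference antibiotic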
* = called active by the depositor; i = inactive; u = inconclusive. The list is partial, so the mix of outcomes need not match the whole.

Start of the listing, in advance:
SMILES	Mtb H37Rv
CCS(=O)(=O)N1CCN(c2ccc(C(=O)NC3C4CC5CC(C4)CC3C5)cc2[N+](=O)[O-])CC1 (centres undefined)	i
CC1CCCCN1c1ccc(C(N)=O)cc1[N+](=O)[O-] (centres undefined)	0%
CSc1nc2sc3c(c2c(=O)n1-c1cccc(Br)c1)CC(C)(C)OC3	i
CC1CCc2c(sc3[nH]c(=S)[nH]c(=O)c23)C1 (centres undefined)	i
O=c1[nH]c2ccc(Br)cc2c(-c2ccccc2)c1CN1CCCCC1	i
CC(=O)Nc1ccc(NC(=S)NC(=O)C2CCCC2)cc1	i
CC1=CC(C)(C)N(C(=O)c2ccccc2)c2cc(C)ccc21	i

Main list, previewed entries included:
SMILES	Mtb H37Rv
CCS(=O)(=O)N1CCN(c2ccc(C(=O)NC3C4CC5CC(C4)CC3C5)cc2[N+](=O)[O-])CC1 (centres undefined)	i
CC1CCCCN1c1ccc(C(N)=O)cc1[N+](=O)[O-] (centres undefined)	0%
CSc1nc2sc3c(c2c(=O)n1-c1cccc(Br)c1)CC(C)(C)OC3	i
CC1CCc2c(sc3[nH]c(=S)[nH]c(=O)c23)C1 (centres undefined)	i
O=c1[nH]c2ccc(Br)cc2c(-c2ccccc2)c1CN1CCCCC1	i
CC(=O)Nc1ccc(NC(=S)NC(=O)C2CCCC2)cc1	i
CC1=CC(C)(C)N(C(=O)c2ccccc2)c2cc(C)ccc21	i
Cn1nc(-c2ccc(N3CCCCC3)c(NC(=O)COc3ccccc3)c2)c2ccccc2c1=O	u
C=CCn1c(=O)c2c(ncn2C)n(C)c1=O	i
O=C(CCN1C(=O)c2ccccc2C1=O)Nc1sc2c(c1C(=O)NCC1CCCO1)CCC2 (centres undefined)	i
Cc1ccccc1-c1nc2cc(NC(=S)NC(=O)c3ccco3)ccc2o1	i
CC1=NC(C(F)(F)F)(C(F)(F)F)c2c(n(Cc3ccccc3)c(=O)[nH]c2=O)N1	i
C=CCSc1nnc(NC(=O)c2ccc(Cl)c(S(=O)(=O)N3CCCCC3)c2)s1	i
Clc1ccccc1OCc1nc(-c2ccccn2)no1	i
CCCCNCCOCCOc1c(Cl)cc(Cl)cc1Cl	11%
COCCNCCOc1ccc(Cl)c(Cl)c1	i
Cc1ccc(Oc2coc3cc(OC(=O)c4cccs4)ccc3c2=O)cc1	36%
COc1cc([N+](=O)[O-])ccc1NC(=S)N1CCN(C(=O)c2ccco2)CC1	i
Cn1c2ccccc2c2n[nH]c(=S)nc21	i
COc1cc2c(cc1OC)C(c1cccc(O)c1)CC(=O)N2 (centres undefined)	i
COc1ccc(CNC(=O)c2ccccc2N(Cc2ccccc2)S(=O)(=O)c2ccccc2)cc1	0%
CC1CN(c2ccc([N+](=O)[O-])cc2S(=O)(=O)N2CC(C)OC(C)C2)CC(C)O1 (centres undefined)	i
Cc1ccc(CNC(=O)CCC2CCCCC2)cc1	i
Cc1cc(C)c(C)c(OCCOCCNCc2ccccc2)c1	47%
N#C/C(=C\c1cc2ccccc2nc1N1CCCCC1)c1nn(-c2ccccc2)c(N)c1C#N	u
COc1ccc(OC)c(N(CC(=O)NCCC2=CCCCC2)S(=O)(=O)c2ccc(C)cc2)c1	i
CN(C(=O)CN1C(=O)c2ccccc2C1=O)C1CCCCC1	i
N#Cc1cc2c(nc1S(=O)Cc1ccc(Cl)cc1)CCCC2 (centres undefined)	i
C=CCn1c(COc2ccccc2)nnc1SCC(=O)Nc1cc(C)c(C)cc1Br	i
Cc1cc(C)c(C(N)=O)c(Nc2ccc(F)cc2)n1	4%
CCc1cc2c(=O)c(-c3ccc(F)cc3)c(C(F)(F)F)oc2cc1OCC(=O)OC	i
COC(=O)c1ccc(COC(=O)c2ccco2)cc1	u
CCOC(=O)c1cnc(-c2ccccc2)nc1N1CCOCC1	i
COc1cccc2cc(-c3csc(Nc4ccc(O)cc4)n3)c(=O)oc12	22%
COc1ccc(CNC(=O)C2CCCC2)cc1	2%
C=CCOc1ccc(CNCc2ccccc2Cl)cc1OCC	i
CC(C)Cc1nc(S(=O)(=O)c2ccc(Cl)cc2)c(N2CCOCC2)o1	3%
Cc1ccc(S(=O)(=O)N2CCCCC2)cc1C	i
COc1ccccc1NC(=O)CCC(=O)c1ccc(C)cc1	i
COc1ccccc1C1CC(=O)C2=C(C1)NC(C)=C(C(=O)OCC1CCCO1)C2c1ccccc1F (centres undefined)	23%
CN1CCC(OC(=O)c2cc3ccccc3o2)CC1	i
COc1ccc(OCC(O)Cn2nc(C)cc2C)cc1 (centres undefined)	i
O=C(CN1CCOCC1)NCC1(c2ccccc2)CCCC1	i
O=C(c1cc2cc(Br)ccc2oc1=O)N1CCN(c2ccccc2)CC1	i
Cc1ccccc1N1C(=O)CC(N2CCc3ccccc3C2)C1=O (centres undefined)	i
COc1ccc(CNC(=O)C(F)(F)C(F)(F)C(F)(F)F)cc1OC	4%
CCOC(=O)N1CCN(C(=S)NCCOC)CC1	i
COc1cccc(C(=O)N2CCC(C(=O)Nc3ccc(C(N)=O)cc3)CC2)c1	i
CC(C)COc1ccc(N2CC(C(N)=O)CC2=O)cc1 (centres undefined)	i
CCN(CC)S(=O)(=O)c1cc(C(=O)O)ccc1OC	i
CCOCCC(=O)Nc1cc(Cl)ccc1OC	i
NS(=O)(=O)c1ccc(CCNC2CC(=O)N(c3ccc(Cl)cc3)C2=O)cc1 (centres undefined)	0%
COc1cc2c(cc1NC(=O)Cc1ccc(F)cc1)oc1ccccc12	i
CCOCC(=O)Nc1nc(CC(=O)OCC)cs1	1%
O=C(COc1ccc2c3c(c(=O)oc2c1)CCC3)c1ccc(Br)cc1	i
CC(=O)OC(COc1ccc2ccccc2c1Br)Cn1cnc2ccccc21 (centres undefined)	u
Cc1ccc2nc(NS(C)(=O)=O)sc2c1	i
COC(=O)C1=CN(C(C)C)C=C(C(=O)OC)C1c1ccc(C)s1	2%
COc1ccccc1C(=O)NC(=S)Nc1cc(Cl)ccc1Cl	i
COc1cccc(OCC(O)CNc2ccc(C)c(C)c2)c1 (centres undefined)	9%

Looked up one by one from the list above, four records:
SMILES	Mtb H37Rv
CC(=O)OC(COc1ccc2ccccc2c1Br)Cn1cnc2ccccc21 (centres undefined)	u
CCOC(=O)N1CCN(C(=S)NCCOC)CC1	i
COc1cccc(OCC(O)CNc2ccc(C)c(C)c2)c1 (centres undefined)	9%
COc1cc2c(cc1NC(=O)Cc1ccc(F)cc1)oc1ccccc12	i

Four entries from above in a different format.
CCN(CC)S(=O)(=O)c1cc(C(=O)O)ccc1OC
  Mtb H37Rv: i
CC(=O)OC(COc1ccc2ccccc2c1Br)Cn1cnc2ccccc21 (centres undefined)
  Mtb H37Rv: u
COc1cc2c(cc1NC(=O)Cc1ccc(F)cc1)oc1ccccc12
  Mtb H37Rv: i
O=C(c1cc2cc(Br)ccc2oc1=O)N1CCN(c2ccccc2)CC1
  Mtb H37Rv: i

(cont.)
SMILES	Mtb H37Rv
CNC(=O)c1ccccc1NC(=O)c1ccc(C)c(S(=O)(=O)N2CCCCC2)c1	i
COc1ccc(-c2noc(-c3ccc(F)cc3)n2)cc1	i
O=S(=O)(Nc1ccc2c3c(cccc13)CC2)c1cc(Cl)ccc1Cl	i
Cc1nc2scc(-c3ccc(Cl)cc3)c2c(=O)o1	4%
CCCn1c(CCc2ccccc2)nnc1SCC(=O)NCc1ccc(C)cc1	1%
CC(C(=O)N1CCCC1)N1c2cccc3cccc(c23)S1(=O)=O (centres undefined)	3%
CC1=C(C(=O)Nc2ccccc2C)C(c2cccnc2)n2nc(CCCO)nc2N1 (centres undefined)	i
Cc1ccc(S(=O)(=O)N(CC(=O)NC2CCCCC2)CC(=O)NC2CCCCC2)cc1	1%
COc1ccc(S(=O)(=O)N2CCC(C(=O)Nc3c(C)cccc3C)CC2)cc1	i
CCOC(=O)c1sc2ncn(Cc3cccc4ccccc34)c(=O)c2c1C	i
COc1ccc(C(=O)Nc2ccc(C(=O)NCc3ccco3)cc2)cc1	i
COCCNCCOc1c(C)cccc1C(C)(C)C	i
CC(C)Oc1ccc(CNC(=O)C2CCCCC2)cc1	i
C=CC1(C)CCC2C(O1)c1ccccc1OC2(C)C (centres undefined)	i
C=CCn1c(SCc2csc(C)n2)nc2sc3c(c2c1=O)CCC3	6%
CCN1C(=O)C2C3c4ccccc4C(C(=O)O)(c4ccccc43)C2C1=O (centres undefined)	i
Cc1ccc(N2CC(c3nc4ccccc4n3CCCCOc3ccccc3)CC2=O)c(C)c1 (centres undefined)	23%
O=C(NCCC1=CCCCC1)C(=O)NCc1ccccc1Cl	1%
CCN(CC)S(=O)(=O)c1ccc(NC(=O)COc2ccc(C)cc2C)cc1	i
CCOc1ccccc1N1CCN(S(=O)(=O)c2ccc(Cl)s2)CC1	i
COc1ccc(NC(=O)C2CC(=O)N(C(C)C)C2)cc1 (centres undefined)	i
Cc1ccc(NC(=O)c2ccc(C#CC(C)(C)O)cc2)cc1C	i
CCCCOCC1CN(c2ccccc2)C(=O)CS1 (centres undefined)	i
Cc1c(NS(=O)(=O)c2ccc3ccccc3c2)cccc1[N+](=O)[O-]	i
CC(=O)c1c(C)oc2ccc(NS(=O)(=O)c3ccc(Cl)cc3)cc12	i
O=S(=O)(CCN1CCCC1)c1ccc(Oc2ccc(S(=O)(=O)CCN3CCCC3)cc2)cc1	i
Cc1ccc(F)cc1NC(=O)CSc1nnc(C(CC(C)C)NC(=O)c2ccccc2Cl)n1C (centres undefined)	i
CCc1ccc(NC(=O)CSc2nnc(Cc3ccccc3)n2-c2ccc(OC)cc2)cc1	i
COc1ccc(-c2nnc(SCc3csc(N)n3)n2C)cc1	i
O=C(NC(=S)Nc1cccnc1)c1ccc(Cl)cc1	i
Cc1nc(NC(=O)c2csc3ccccc23)sc1C	u
COc1ccc(NC(=O)N2CCOCC2)cc1	i
CCOc1ccc(-n2c(Cc3ccccc3)nnc2SCC(=O)Nc2ccc(Cl)cc2)cc1	i
CCc1ccc(Oc2coc3cc(OC(=O)C(C)C)ccc3c2=O)cc1	i
CCOC(=O)c1c(NC(=O)CN(c2ccc(OC)c(OC)c2)S(C)(=O)=O)sc2c1CCCC2	11%
CCOC(=O)N1CCN(Cc2nc(-c3ccccc3)no2)CC1	i
COC(=O)c1ccc(NC(=O)CN(c2ccc(Cl)cc2)S(=O)(=O)c2ccc(OC)cc2)cc1	i
N#CCCn1cc(C(=O)Nc2ccc(F)cc2)c(-c2cccc(Br)c2)n1	i
O=C(O)c1cc(NC(=O)C2CCCO2)cc(C(=O)O)c1 (centres undefined)	i
COc1ccc(NC(=S)Nc2cc(-c3ccccc3)[nH]n2)cc1Cl	i
Cc1ccc(C(=O)N(CC(N)=O)CC(N)=O)cc1	i
CCCC(=O)N1CCN(c2ccc(NC(=O)c3ccccc3F)cc2Cl)CC1	28%
CN(c1cccc(NS(=O)(=O)c2cc(Cl)ccc2Cl)c1)S(C)(=O)=O	i
CCc1c(C)sc(NC(=S)N2CC(C)OC(C)C2)c1C(=O)OC (centres undefined)	6%
CCOc1cc(C(=O)Nc2ccc3oc(-c4cccnc4)nc3c2)cc(OCC)c1OCC	i
Cc1cccc(NC(=O)c2ccc(S(=O)(=O)N3CCCCC3C)cc2)c1C (centres undefined)	i
CCCn1nnc(NC(=O)Cc2ccc(Cl)cc2)n1	5%
CC(Oc1ccc(Cl)cc1Cl)C(=O)N1CCN(c2ccc(F)cc2)CC1 (centres undefined)	i
COC(=O)Nc1nnc(-c2ccc(F)cc2)s1	1%
NC(=O)c1cc(S(=O)(=O)Nc2cccc(C(F)(F)F)c2)ccc1O	i
COC(=O)CSc1ncnc2sc(C)c(C)c12	4%
O=C(CSc1nc2ccccc2c(=O)n1CC1CCCO1)N1CCN(c2ccccc2)CC1 (centres undefined)	i
CCOCC(=O)Nc1cc(C)cc(C)c1	i
Cc1cc2c([nH]c(=O)c3c(=O)cc(C(F)(F)F)[nH]c32)s1	i
Oc1cccc(Nc2nc(NCc3ccco3)c3ccccc3n2)c1	39%
CCOc1ccc(C(O)c2nc3ccccc3n2Cc2ccccc2)cc1 (centres undefined)	i
O=C(Nc1nc(-c2ccc(Br)cc2)cs1)NC1CCCCC1	u
CCc1ccccc1NC(=O)CSc1nnc(C(C)NC(=O)c2ccc(C)cc2)n1C (centres undefined)	i
COc1ccc2oc3nc(=O)c4ccccc4c-3cc2c1	i
COc1ccc(-c2noc(CN(C(=O)c3ccco3)C(C)C)n2)cc1	3%
Continued.
SMILES	Mtb H37Rv
O=C1CC(N(Cc2ccco2)C(=O)Nc2ccc(F)cc2)C(=O)N1c1ccc(F)cc1 (centres undefined)	i
COc1ccc(CC(=O)Nc2cccc(-c3nnc(-c4ccccc4)o3)c2)cc1OC	i
COc1cc(CNCCO)ccc1OCc1ccc(Cl)cc1Cl	26%
CCOC(=O)c1ccc(NC(=S)Nc2ccc(S(=O)(=O)NC(=O)c3ccccc3)cc2)cc1	6%
Cc1cccc(C)c1NC(=O)C1CCC(C(=O)Nc2c(C)cccc2C)CC1 (centres undefined)	i
COc1ccc(C(=O)NC(=S)Nc2cccc(C(=O)O)c2C)cc1	i
Cc1cccc(NC(=O)CSc2nnc(C)n2-c2ccc(F)cc2)c1C	i
Nc1nc(N)nc(Cc2ccccc2)n1	i
Cc1cc(C)cc(CC2CC(=O)N(c3ccc(C(=O)O)cc3)C2=O)c1 (centres undefined)	i
Cc1ccc(N2C(=O)CC(Sc3nccc(C)n3)C2=O)cc1 (centres undefined)	i
Cc1ccccc1NC(=O)c1cc(Cl)ccc1O	2.6µg/mL*
O=C(c1cccc(-c2nnc(-c3ccccc3)o2)c1)N1CCCC1	i
COC(=O)c1cc(NS(C)(=O)=O)ccc1Cl	1%
CCOC(=O)N1CCN(C(=O)c2ccc(CN3CCOCC3)cc2)CC1	2%
